Screening results as filed in PubChem BioAssay.
Bead autofluor = counter-screen for toxin protease inhibitors: compound fluorescence. fluorescence intensity (no concentration beside the values). AID 624483. compound autofluorescence counterscreen, microsphere flow cytometry; active compounds read high. 360,000 tested, 3.1% active;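 active = at least 3 SD above the mean of all compounds, about 16000 in these data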;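 also: 100 nL of 1 mM stock went into each well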
The depositor's hits bear a star.

SMILES | Bead autofluor
Cc1ccc(S(=O)(=O)N2C[C@H]3[C@H]4C(=O)N(C)C(=O)[C@H]4CC(=O)[C@H]3[C@@H]2c2ccccc2Cl)cc1 | 6277
O=C(NCc1ccccc1F)c1ccc(S(=O)(=O)N2CCCC2)cc1 | 3900
Cc1ccc(S(=O)(=O)N(C)C[C@H]2OCc3cnnn3CCCC(=O)N([C@H](C)CO)C[C@H]2C)cc1 | 2830
Cc1ccc([C@H]2C[C@@H](O)[C@H](n3cc(C4CC4)nn3)CN2C(=O)C2CCCCC2)cc1 | 3666
CC(=NCc1ccccc1)c1ccccc1O | 3612
COc1cccc(C(C)(O)c2nc(-c3ccoc3)cs2)c1 (stereo unspecified) | 4264
COCCNC(=O)C1(C)CCCN(C(=O)c2ccc(C)c(F)c2)C1 (stereo unspecified) | 2578
Cc1cc(C)n2c(NC3CCCC3)c(-c3cc4ccccc4o3)nc2n1 | 7679
CCCCC1CC2=C(C(=O)OC(C)(C)O2)C(c2ccc3ccccc3c2)O1 (stereo unspecified) | 5480
CN1CCN(c2ccc(CNC(=O)c3ccc(-c4ccc(F)c(F)c4)c4ccoc34)cc2)CC1 | 2790
N#Cc1ccc(C(=O)N2CCCC(c3cc(C(=O)NCc4cccnc4)no3)C2)cc1 (stereo unspecified) | 3846
COc1ccc(Cc2c(-c3ccc(F)cc3)nc3ccc(Br)cn23)c(C)c1 | 6538
O=C(NC(=S)Nc1c(Cl)cc(Cl)cc1Cl)c1ccccc1 | 3486
O=C(Nc1ccccc1)c1cc(C2CCCCN2C(=O)c2ccc3c(c2)CCO3)on1 (stereo unspecified) | 3058
CSC[C@H]1CN(Cc2ccccc2)C(=O)[C@@H]1CC(=O)Nc1ccc(Br)cc1 | 3288
O=C(COC(=O)c1cccc(S(=O)(=O)N2CCCC2)c1)c1ccc(F)cc1 | 3671
COc1cccc(-c2cnc(C(O)c3ccc(F)cc3C)[nH]2)c1 (stereo unspecified) | 2943
N#CCSc1ccccc1NC(=O)CN1C(=O)NC(CCc2ccccc2)C1=O (stereo unspecified) | 3877
C[C@H](CO)N1C[C@H](C)[C@@H](CN(C)C(=O)CCC(F)(F)F)OCc2cnnn2CCCC1=O | 3721
CCCNC(=O)c1cc(S(=O)(=O)N2CCC3(CC2)OCCO3)ccc1F | 3674
O=C(Cc1cccs1)N1Cc2ccccc2-n2nncc2C1 | 3103
C/C=C/c1cnc2c(c1)C(=O)N([C@H](C)CO)C[C@H](C)[C@@H](CN(C)C(=O)CN1CCOCC1)O2 | 3701
O=C1C(Sc2cccc(F)c2)=C[C@@]2(O)CC[C@@H](O)[C@]1(Sc1cccc(F)c1)[C@H]2O | 5519
COc1ccc(C(=O)Nc2ccccc2C(=O)NC2CC2)c(OC)c1OC | 3798
CCC(Sc1nc2ccsc2c(=O)n1Cc1ccc(C(=O)O)cc1)C(=O)Nc1cccc(OC)c1 (stereo unspecified) | 4170
CCOC(=O)[C@]12CCC=C1N(CCC1=CCCCC1)C(=O)[C@H](CC(=O)NCc1ccc(OC)c(OC)c1)C2 | 6027
CCc1nc2ccc(C(=O)N(C)Cc3ccco3)cn2c1N(C)CCCc1ccccc1 | 2789
Clc1cccc(CNc2ccn3nc(-c4ccc(OCc5ccccc5)cc4)cc3n2)c1 | 3979
COCCNC(=S)Nc1ccc(N2CCOCC2)c(S(=O)(=O)Nc2ccc(Cl)cc2)c1 | 2997
C[C@@H]1CN([C@@H](C)CO)C(=O)CCCn2nncc2CO[C@@H]1CN(C)C(=O)Nc1ccccc1C(F)(F)F | 2873
Cc1ccccc1S(=O)(=O)NC(=O)C1(C)CCN1C(=O)C1CCCCC1 (stereo unspecified) | 3858
CC(C)C1C(=O)N(Cc2cn(CCC3OCCCO3)nn2)CCS(=O)(=O)N1Cc1ccc(-c2ccncc2)cc1 (stereo unspecified) | 3795
COC(=O)c1ccc2nc(-c3cccc(Cl)c3)c(Cc3ccccc3)n2c1 | 6576
Cc1cc(Br)cn2c(Cc3ccccc3)c(-c3ccc(C#N)cc3)nc12 | 8808
CN(C)CCN1CCN(C2CN(Cc3cn(Cc4ccc(F)cc4)nn3)S(=O)(=O)C2)CC1 (stereo unspecified) | 6397
COC(=O)c1ccc2nc(-c3ccc(Cl)cc3)c(Cc3cccc(Cl)c3)n2c1 | 7223
CCC(=O)N1Cc2cc(C(=O)NCC(F)(F)F)nc(-c3cccc(-c4cncnc4)c3)c2[C@H]1CCO | 6842
CCOC(=O)[C@]12CCC=C1N(Cc1ccc(Cl)cc1Cl)C(=O)[C@H](CC(=O)N1CCCCC1)C2 | 6064
COc1ccc(CN2C(=O)CCC2(C)c2nnnn2-c2ccc3c(c2)OCCO3)cc1 (stereo unspecified) | 6163
CC1(C(=O)NS(=O)(=O)c2ccccc2C(F)(F)F)CCN1C(=O)CCC1CCCC1 (stereo unspecified) | 3899

Entries shown so far that contain fluorine:
SMILES | Bead autofluor
O=C(NCc1ccccc1F)c1ccc(S(=O)(=O)N2CCCC2)cc1 | 3900
COCCNC(=O)C1(C)CCCN(C(=O)c2ccc(C)c(F)c2)C1 (stereo unspecified) | 2578
CN1CCN(c2ccc(CNC(=O)c3ccc(-c4ccc(F)c(F)c4)c4ccoc34)cc2)CC1 | 2790
COc1ccc(Cc2c(-c3ccc(F)cc3)nc3ccc(Br)cn23)c(C)c1 | 6538
O=C(COC(=O)c1cccc(S(=O)(=O)N2CCCC2)c1)c1ccc(F)cc1 | 3671
COc1cccc(-c2cnc(C(O)c3ccc(F)cc3C)[nH]2)c1 (stereo unspecified) | 2943
C[C@H](CO)N1C[C@H](C)[C@@H](CN(C)C(=O)CCC(F)(F)F)OCc2cnnn2CCCC1=O | 3721
CCCNC(=O)c1cc(S(=O)(=O)N2CCC3(CC2)OCCO3)ccc1F | 3674
O=C1C(Sc2cccc(F)c2)=C[C@@]2(O)CC[C@@H](O)[C@]1(Sc1cccc(F)c1)[C@H]2O | 5519
C[C@@H]1CN([C@@H](C)CO)C(=O)CCCn2nncc2CO[C@@H]1CN(C)C(=O)Nc1ccccc1C(F)(F)F | 2873
CN(C)CCN1CCN(C2CN(Cc3cn(Cc4ccc(F)cc4)nn3)S(=O)(=O)C2)CC1 (stereo unspecified) | 6397
CCC(=O)N1Cc2cc(C(=O)NCC(F)(F)F)nc(-c3cccc(-c4cncnc4)c3)c2[C@H]1CCO | 6842
CC1(C(=O)NS(=O)(=O)c2ccccc2C(F)(F)F)CCN1C(=O)CCC1CCCC1 (stereo unspecified) | 3899

Other compounds follow.
SMILES | Bead autofluor
Cc1cc(N2CCN(C(c3ccnc4ccccc34)c3nnnn3-c3c(C)cccc3C)CC2)c2ccccc2n1 (stereo unspecified) | 6095
ClC1=CN(C2=NCCC2)CC1 | 8058
CCCCC(=O)N(C)c1c(CC)nc2c(OCc3ccc(C(F)(F)F)cc3)cccn12 | 4162
COC(=O)[C@]12CCCCC=C1N(Cc1ccc(Cl)cc1Cl)C(=O)[C@H](CC(=O)NCc1ccc(OC)c(OC)c1)C2 | 5364
CCCCNC(=O)C1(C)CCCCN1C(=O)c1cc2ccccc2s1 (stereo unspecified) | 4025
c1ccc(C2=NC(c3ccccc3)CC2)cc1 (stereo unspecified) | 3775
COc1ccccc1-c1cnc2c(c1)C(=O)N([C@@H](C)CO)C[C@H](C)[C@H](CN(C)C)O2 | 3781
C[C@@H]1CN([C@H](C)CO)C(=O)CCCn2cc(nn2)CO[C@H]1CN(C)S(=O)(=O)c1ccc(-c2ccccc2)cc1 | 3859
COc1cc(NC(=O)Nc2nc(C(N)C3CCCCC3)cs2)cc(OC)c1OC (stereo unspecified) | 3876
CCc1nc2ccc(C(=O)N3CCN(C(=O)c4ccco4)CC3)cn2c1N(CC)Cc1cccc(Br)c1 | 3820
CC(C)Oc1ccc(CN2CCC2(C)C(=O)Nc2cnc3ccccc3c2)cc1 (stereo unspecified) | 3036
Cc1cccc(C)c1-n1nnnc1-c1nc2ccccc2[nH]c1=O | 6697
CCCCCCCC1=NN(c2ccc(S(=O)(=O)O)cc2)C(=O)C1N=O (stereo unspecified) | 3630
CC(=O)Nc1ccc(C(=O)N2CCCCC2c2cc(C(=O)NCc3cccnc3)no2)cc1 (stereo unspecified) | 4372
Cc1cccc(C)c1NC(=O)C1c2ccccc2OCC(=O)N1Cc1cccnc1 (stereo unspecified) | 4980
OC[C@@H]1CN(Cc2ccco2)C[C@H](n2cnc3c(NCc4ccncc4)ncnc32)O1 | 3709
COc1cccc(N2CCN(C(=O)c3cccc(NC(=O)C4=C(C)OCCS4)c3)CC2)c1 | 4076
Cc1cc(C)c2c(CN3CCCC3)cc(=O)oc2c1 | 4876
Cc1ccc(C(=O)OCC(=O)Nc2cc(Cl)ccc2C#N)o1 | 3463
CN(C)c1ccc(CC(=O)N2CCCCC2c2cc(C(=O)Nc3cccc4c3CCCC4)no2)cc1 (stereo unspecified) | 3005
COc1ccc2[nH]cc(CCNC(=O)/C=C/[C@H]3O[C@@H](n4cnc5c(NC(=O)c6ccccc6)ncnc54)[C@H](O)[C@@H]3O)c2c1 | 4454
Cn1nnc(NC(=S)NC(=O)c2ccc3ccccc3c2)n1 | 3496
COc1cccc(CNC(=O)COC(=O)c2ccc(N3CCCC3=O)cc2)c1 | 3960
CN1CCC(N2CCN(C3CN(C4CCCCC4)S(=O)(=O)C3)CC2)CC1 (stereo unspecified) | 6429
CCCC1NC(=O)c2cccnc2-n2c1nc1ccc(Br)cc1c2=O (stereo unspecified) | 2874
CC(C)C(=O)N1CCC1(C)C(=O)Nc1cc(-c2ccccc2)nn1C (stereo unspecified) | 3759
OCC[C@@H]1C[C@H](O)[C@@H](O)[C@@]2(OCCCc3cc(Cl)ccc32)O1 | 6643
O=C1C2C3C=CC(C3)C2S(=O)(=O)C2C3C=CC(C3)C12 (stereo unspecified) | 3962
O=c1ccn([C@@H]2O[C@H](CNCc3c(OCc4ccccc4F)ccc4ccccc34)[C@@H](O)[C@H]2O)c(=O)[nH]1 | 6079
COc1ccc(CC(=O)OCC(=O)N2c3ccccc3CC2C)cc1OC (stereo unspecified) | 4137
CCN(CC)c1ncnc2c1ncn2[C@H]1CN(Cc2cc(OC)c(OC)c(OC)c2)C[C@@H](CO)O1 | 3040
c1ccc(CN2CCC3CC2c2c3cccc2N2CCOCC2)cc1 (stereo unspecified) | 6316
COc1ccc(CN2C(=O)CCC2(C)c2nnnn2-c2c(C)cccc2C)cc1 (stereo unspecified) | 6002
O=C(Nc1ccccc1Cl)c1cc(S(=O)(=O)N2CCC3(CC2)OCCO3)ccc1F | 3717
Cc1cn([C@H]2C[C@H](O)[C@@H](/C=C/C(=O)NCCC(C)C)O2)c(=O)[nH]c1=O | 6101
CC(C)CCNC(=O)C1(C)CCN1Cc1ccc(-c2ccccn2)cc1 (stereo unspecified) | 3745
CC(=O)NC(c1cccc(F)c1)c1nc(-c2cccc(C(C)C)c2)cs1 (stereo unspecified) | 3860
Cn1cnc(S(=O)(=O)N2CCCCC2c2cc(C(=O)Nc3cccc4c3CCCC4)no2)c1 (stereo unspecified) | 3616
CC(C)NC(=O)c1ccc2nc([C@@H]3O[C@H](CO)[C@H](O)[C@H](O)[C@H]3O)[nH]c2c1 | 3771
COc1ccc(-n2nnnc2C(c2ccnc3ccccc23)N2CCN(C/C=C/c3ccccc3)CC2)cc1 (stereo unspecified) | 4519
CN(C)c1ncnc2c1ncn2[C@H]1CN(Cc2cccs2)C[C@@H](CO)O1 | 3391
Cc1n[nH]c2ccc(Br)cc2c1=O | 2849
CCCCCCCCN1C(=O)[C@H](CC(=O)NCc2cccs2)C[C@@]2(C(=O)OC)CCCCC=C12 | 6114
Cc1ccc(S(=O)(=O)N2CCOCC2)cc1NC(=O)CSc1nnnn1C1CC1 | 4006
COc1cc(OC)cc(-c2noc(-c3csc([C@@H]4O[C@H](CO)[C@H](O)[C@H](O)[C@H]4O)n3)n2)c1 | 3441
COc1ccc(C(O)c2ncc(-c3ccccc3C)[nH]2)cc1 (stereo unspecified) | 3577
Cc1ccnn1CCC(=O)N1CCCC(Nc2ccc(C(C)C)cc2)C1 (stereo unspecified) | 4013
O=C(NCc1ccncc1)C1Cc2c(-c3ccccc3Oc3ccccc3)ccnc2O1 (stereo unspecified) | 3921
Nc1ccn(C(C=O)CC(C=O)CO)c(=O)n1 (stereo unspecified) | 6177
C[C@H](CO)N1C[C@H](C)[C@@H](CN(C)C(=O)Oc2ccc3ccccc3c2)OCc2cn(nn2)CCCC1=O | 3749
COC(=O)[C@@]1(Cc2ccc(OC)cc2)[C@H]2c3cc(C(=O)N4CCCC4)n(CCN4CCOCC4)c3C[C@H]2CN1C(=O)c1ccccc1 | 5733
Cc1nc2c(OCc3ccc(C(F)(F)F)cc3)cccn2c1N(C)C(=O)CCC1CCCC1 | 4015
COc1cc(CNC(=O)Nc2nnc([C@@H]3C[C@H](O)[C@@H](CO)O3)s2)cc(OC)c1OC | 3496
CCCCC[C@@H](C)N1C[C@@H](COCc2ccccc2)Oc2cc(N3CCC[C@@H]3COC)ccc2S1(=O)=O | 5441
Cc1cc(C)n2nc(SCC(=O)NC3(C#N)CCCCC3)nc2n1 | 3608
CC1(C(=O)O)CCN1C(=O)c1cccc(OC(F)(F)F)c1 (stereo unspecified) | 3959
CC(C)(C)OC[C@H](NC(=O)c1[nH]cnc1C(=O)Nc1ccccc1F)C(=O)OC(C)(C)C | 3468
COc1cccc(NC(=O)N2CCc3nc(Nc4ccc(C(C)C)cc4)ncc3C2)c1 | 3888
CC(=O)Nc1ccc(CNc2nc(NCc3cccs3)nc3ccsc23)cc1 | 3921
COc1cc(N(C(C)=O)c2ccc(O)c(C(=O)O)c2)c2ncccc2c1 | 3500

Other records:
SMILES | Bead autofluor
Cc1ccc2cc(F)ccc2n1 | 5400
COc1ccc(NC(=O)Nc2ccc3c(c2)C(=O)N([C@H](C)CO)C[C@H](C)[C@@H](CN(C)Cc2ccc(Cl)c(Cl)c2)OCCCC[C@@H](C)O3)cc1 | 3116
O=C(O)c1sccc1S(=O)(=O)N1CCCCC1 | 3784
COc1ccc(-c2nc3cc(C)c(Br)c(C)n3c2Cc2cccc(F)c2)cc1OC | 5711
CCCn1c(=S)[nH]c2cc(C(=O)N3CCN(C)CC3)ccc2c1=O | 3515
COc1cc(C(=O)N2Cc3ccc(Br)cc3-n3nncc3C2)cc(OC)c1OC | 5844
CNC(=O)OCc1ncn(-c2ccccc2)c1COC(=O)NC | 6459
CC1(C(=O)N2Cc3ccccc3C2)CCN1C(=O)C1(c2ccc(Cl)cc2)CC1 (stereo unspecified) | 2799
Cc1cc(OCC(=O)Nc2nccs2)c2c(C)c(C)c(=O)oc2c1 | 3068

This is a subset; the hit share may differ from the screen's.
